High-throughput results from PubChem.
OX1R antag-1 – blocks the human orexin 1 receptor. inhibition, % at 5 µM. CHO/OX1R cells, Fluo-8 calcium fluorescence, orexin A. O43613. 0.43% of 330,000 active. AID 434989;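 active means inhibition above its plate's threshold, mean inhibition of all tested compounds on the plate plus 3 SD, cut at about 37% in these data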;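 further: 0% = orexin A challenge wells and 100% = SB-334867-A antagonist wells; not every result past the cut was called active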
Target sequence (O43613 whole entry, looked up): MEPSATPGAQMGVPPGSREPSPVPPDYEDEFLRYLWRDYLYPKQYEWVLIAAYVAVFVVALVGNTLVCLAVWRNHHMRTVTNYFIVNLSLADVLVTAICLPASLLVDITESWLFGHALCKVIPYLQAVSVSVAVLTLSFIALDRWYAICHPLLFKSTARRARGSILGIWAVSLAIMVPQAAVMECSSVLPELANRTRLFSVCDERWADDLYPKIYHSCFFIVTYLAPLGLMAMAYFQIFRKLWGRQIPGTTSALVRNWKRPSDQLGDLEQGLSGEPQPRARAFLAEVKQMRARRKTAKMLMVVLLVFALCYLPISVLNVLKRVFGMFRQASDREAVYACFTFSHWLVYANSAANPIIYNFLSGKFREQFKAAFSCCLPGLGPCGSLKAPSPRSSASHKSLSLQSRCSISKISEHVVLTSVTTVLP
OX1R antag-2 – blocks the human orexin 1 receptor; inhibition, % at 6.6 µM; OX1R-expressing cells, FRET antagonist read-out; 1.8% of 330,000 active; O43613; AID 485270; in the data active means inhibition mostly above about 38%, no sharp cut-off; inactive means mostly below about 40%;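 further: 0% = agonist challenge alone and 100% = reference antagonist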
Numbers without * were called inactive. Not all compounds are listed, and most or all hits are left out here.

SMILES	OX1R antag-1	OX1R antag-2
O=C(Nc1cccc2ccccc12)OC1C=CS(=O)(=O)C1 (stereo not given)	-11	39
C/C(CCc1ccccc1)=N\NC(=O)C1C2CCCCC21 (stereo not given)	2	4
O=C(CN1CCN(c2ccccc2)CC1)c1ccc2cc[nH]c2c1	-3	9
CN(C)CCCNC(=S)N(CCN(C)C)Cc1cc2cc3c(cc2[nH]c1=O)OCCO3	-10	5
COc1ccc(-n2nnnc2SCC(=O)Nc2cccc(C)n2)cc1OC	-9	6
C/C(=N/OC(=O)c1ccc(F)cc1)c1ccc(C)cc1	-11	9
COc1ccc(OCCCn2cccc2/C=C2/C(=N)N3OC(C)=CC3=NC2=O)cc1	-36	8
CN(C)c1nc2c(c(=O)[nH]c(=O)n2C)n1Cc1ccc(F)cc1	-9	5
CC(=O)OC(COC1C[C@@H]2CC[C@@]1(C)C2(C)C)C[N+]1(C)CCCCC1 (stereo not given in full)	-9	10
CN(CCC1CCOCC1)Cc1nc(Cc2ccccc2F)no1	-21	10
CC(C)C(C(=O)Nc1ccc(N2CCOCC2)cc1)N1C(=O)c2ccccc2C1=O (stereo not given)	0	16
CN(C)c1ccc(/C=N/N(CCC#N)C2=NS(=O)(=O)c3ccccc32)cc1	-18	-5
O=C(NCc1ccccn1)c1cccc(S(=O)(=O)NCc2ccccc2)c1	-18	18
CN(C)/C=N/c1sc2c(c1C#N)CC(C)(C)NC2(C)C	7	13
CC1CC(C)CN(C(=O)CCNC(=O)Cn2ccc3ccccc3c2=O)C1 (stereo not given)	0	9
Cc1ccccc1CC(=O)Nc1ccc(S(=O)(=O)N2CCOCC2)cc1	1	23
COCc1cc(C)nc(SCC(=O)Nc2ccc(C)c(C)c2)c1C#N	-18	34
Cc1ccc(O)c(C(=O)c2cc(C#N)c(=O)n(Cc3ccccc3)c2)c1	-14	14
Fc1ccc(-c2nc3cnccn3c2NC2CCCC2)cc1	-39	20
CCOc1ccc(OCc2ccc(C(=O)N(CC)CC)cc2)cc1	-12	18
O=C(NCCCCNC(=O)c1ccccc1Br)c1ccccc1Br	-28	10
Cn1nc(C(F)(F)F)c(C(=O)Nc2ccc(C(F)(F)F)cc2)c1Cl	-13	10
CCOCCCNC(=O)C(NC(=O)CNC(=O)c1ccccc1)c1ccc(OC)cc1 (stereo not given)	-7	4
CCCCn1c(N)c(N(CCOC)C(=O)CSCc2ccc(Cl)c(Cl)c2)c(=O)[nH]c1=O	-19	7

Overlap with the part before: 4 compounds, then new ones.
SMILES	OX1R antag-1	OX1R antag-2
O=C(NCCCCNC(=O)c1ccccc1Br)c1ccccc1Br	-28	10
Cn1nc(C(F)(F)F)c(C(=O)Nc2ccc(C(F)(F)F)cc2)c1Cl	-13	10
CCOCCCNC(=O)C(NC(=O)CNC(=O)c1ccccc1)c1ccc(OC)cc1 (stereo not given)	-7	4
CCCCn1c(N)c(N(CCOC)C(=O)CSCc2ccc(Cl)c(Cl)c2)c(=O)[nH]c1=O	-19	7
O=C(c1ccco1)N1CCN(c2ncnc3scc(-c4ccc(F)cc4)c23)CC1	-40	2
O=C(NCc1cccnc1)c1cccc(S(=O)(=O)N2CCCC2)c1	-16	10
O=C(O)CC1(CC(=O)Nc2ccccc2C(=O)c2ccccc2)CCCC1	-11	17
c1ccc(-c2cn3c(n2)CCc2ccc4cccnc4c2-3)cc1	-38	14
O=c1c(-c2ccco2)[n+]([O-])c2ccccc2n1OCc1ccccc1F	-12	19
COc1ccccc1/C=N/n1c(N)c(S(=O)(=O)c2cccs2)c2nc3ccccc3nc21	-6	11
Cc1cccc(NC(=O)c2ccc3nccnc3c2)n1	-12	48
O=C(Nc1csc(Cl)c1)c1ccccc1	-18	10
O=C(NCc1ccc(Cl)cc1)c1cc([N+](=O)[O-])ccc1Cl	-13	31
O=C(Oc1ccccc1Cl)C1CCN(C(=O)c2ccc(F)cc2)CC1	-18	7
Cc1cc(C)n(CCOC(=O)c2sc3ccccc3c2Cl)n1	-38	48
CCOc1ccccc1N1CCN(Cc2ccc(OC)c(OC)c2)CC1	-28	15
COc1ccc(-c2nc3scc(-c4ccc(OC)c(OC)c4)c3c(=O)o2)cc1	-19	3
CC(=O)c1c(C)[nH]c(C(=O)Nc2ccc(F)c(F)c2F)c1C	-22	14
Cc1csc(CNC(=O)c2cc(COc3c(C)cccc3C)on2)n1	-24	13
CCN1CCN(c2cc(C(C)C)nc3c(-c4ccccc4)c(C)nn23)CC1	-11	10
COc1cc(OC)c(NC(=S)NCc2ccc(F)cc2)cc1Cl	-6	4
CC(C)(C)C(=O)OCCn1c(=O)c2cc3c(=O)n(CCOC(=O)C(C)(C)C)c(=O)c3cc2c1=O	-8	6
Cc1csc(NC(=O)CSCc2c(C)noc2C)n1	-17	9
O=C(CCNS(=O)(=O)c1ccccc1C(F)(F)F)NCC(c1ccco1)N1CCCCC1 (stereo not given)	-30	15
CCCCN(C(=O)Oc1ccccc1)C1CCS(=O)(=O)C1 (stereo not given)	-19	10
CCc1cccc(C)c1NC(=S)NCc1ccccc1	-5	12
Cc1ccccc1OCCCN1C(=O)C(=O)c2cccc(C)c21	-18	9
Cc1nc2cc(NCc3nc4ccccc4n3Cc3ccccc3)ccc2n1C	-35	20
Cc1nc(-c2cc(C#N)c(Sc3cccc(C(F)(F)F)c3)nc2C)cs1	-30	-4
CCOc1ccccc1C1N(c2ccc(OC)cc2)C(=O)C2CCCN21 (stereo not given)	-11	18
CC(C(=O)Nc1ccc(S(=O)(=O)N2CCCC2)cc1)N1CCN(C(=O)c2ccco2)CC1 (stereo not given)	-3	4
CC(=O)NC(CC(=O)O)c1ccccc1 (stereo not given)	6	2
CCOc1ccccc1NC(=O)C1CCCN(S(=O)(=O)c2ccc(OC)c(C)c2)C1 (stereo not given)	-35	46
CCNC(=O)CC(=O)Nc1ccccc1C(=O)O	-11	11
CCCCN(C(=O)c1ccc(C)c(S(=O)(=O)N2CCOCC2)c1)c1c(N)n(CC(C)C)c(=O)[nH]c1=O	-18	14
O=C(Nc1ccccc1)N(C1=NCCC1)c1ccccc1	-15	6
CC(C)NC(=O)NC(=O)CSc1nnc(COc2ccccc2Cl)o1	-16	9
CN1CCN(NC(=O)CN(C)S(=O)(=O)c2cc(Cl)ccc2Cl)CC1	-9	19
O=C(NCc1cccnc1)c1ccccn1	4	-2
O=C(CSc1ncccc1C(=O)O)NC1CCCCC1	-8	4
O=C(CCNS(=O)(=O)c1cccc2nonc12)NCCc1ccc(Cl)cc1	-8	32
FC(F)(F)c1cc(Cl)c2nnc(-c3cccnc3)n2c1	1	25
NC(=O)Nc1ccc2c(c1)OCCO2	-5	22
CC1=C(/C=N/Nc2ccc([N+](=O)[O-])cc2[N+](=O)[O-])C(C)(C)CCC1	9	9
Oc1ccc(Nc2nc(-c3ccc(O)cc3)cs2)cc1	5	14
COc1cc(C(=O)Nc2ccc(Oc3ncnc4sc(-c5ccccc5)cc34)cc2)cc(OC)c1OC	-20	32
O=C(NC12CC3CC(CC(C3)C1)C2)N1CCN(c2ncccn2)CC1	-10	21
O=C(COc1nncc2ccccc12)NCC(F)(F)F	-14	1
O=C(CCN1C(=O)c2ccccc2C1=O)NCCN1CCOCC1	-5	11
O=C(CNC(=O)C1CCCCC1)NCCCO	17	14
O=C(CC(=O)NC1CCCCC1)N/N=C/c1cccc2ccccc12	-31	8
COC(=O)C1=C(C)N=C2SC(C)C(=O)N2C1c1ccc(C(=O)OC)cc1 (stereo not given)	-27	16
Cc1ccc(CSc2ccc(-c3cccs3)nn2)cc1	-11	22
Cc1nonc1N1CCN(Cc2cn[nH]c2-c2ccc3c(c2)OCO3)CC1	-9	8
CCCn1c(=O)c(C(=O)NCc2ccccc2OC)c(O)c2ccccc21	-24	-11
COc1ccc(CNS(=O)(=O)NCc2ccc(OC)c(OC)c2)cc1OC	-17	16
CC(C)(C)NCC(=O)N/N=C/c1ccc(OCc2ccccc2)cc1	-14	-7
CCOC(=O)c1ccc(NS(=O)(=O)c2c(N)n(C)c(=O)n(C)c2=O)cc1	-14	12
C1CCCCCC(=NNc2nn[nH]n2)CCCCC1	-12	1
CC(C(=O)N1CCN(Cc2ccccc2)CC1)c1ccc([N+](=O)[O-])cc1 (stereo not given)	-23	11
O=C(NCc1cccnc1)/C(=C/c1ccc(Cl)cc1)NC(=O)c1ccccc1	-13	4
O=C(N/N=C/c1ccncc1)c1cccc(S(=O)(=O)Nc2ccc(Cl)cc2)c1	-11	5
CCCN1C(=O)/C(=C/c2ccco2)SC1=Nc1ccc(OC)cc1	-40	3
COc1ccc(S(=O)(=O)N(C)CC(=O)NC2CC2)cc1	5	-4

Further compounds
SMILES	OX1R antag-1	OX1R antag-2
CCCCOc1ccc(C(=O)N/C(=C\c2cccc([N+](=O)[O-])c2)C(=O)OCc2ccco2)cc1	-5	21
CCCCNC(=S)N1CCN(c2nc3ccccc3s2)CC1	-2	7
CC(Cc1ccccc1)C(=O)NCc1ccccn1 (stereo not given)	1	2
COC(=O)/C=C/C(=O)Nc1cccc(C(F)(F)F)c1	-3	-1
COc1ccccc1-n1cnc2cc(NC(=O)c3ccco3)ccc21	-7	12
Cn1c(=O)c2cc(S(=O)(=O)NCCC(=O)NCCC3=CCCCC3)ccc2n(C)c1=O	-22	12
CC(=O)Nc1ccc(NC(=O)CCC(=O)NCCO)cc1	-8	4
CCOC(=O)c1ccc(N2C(=O)C3CC=C(C)CC3C2=O)cc1 (stereo not given)	-24	28
Cc1nc2c(c(C)nn2-c2ccccc2)c(C)c1CCC(=O)Nc1ccc(CN2CCCC2)cc1	-15	7
CN(Cc1ccccc1)C(=S)NC(=O)C1CCCCC1	-22	11
CCc1nnc(NS(=O)(=O)c2ccc(NS(=O)(=O)c3ccccc3[N+](=O)[O-])cc2)s1	-9	6
O=C(c1ccccc1)n1ccn(-c2ccccc2)c1=S	-19	13

Some of the entries so far, field by field.
COC(=O)/C=C/C(=O)Nc1cccc(C(F)(F)F)c1
- OX1R antag-1: -3
- OX1R antag-2: -1

COc1ccccc1-n1cnc2cc(NC(=O)c3ccco3)ccc21
- OX1R antag-1: -7
- OX1R antag-2: 12

Cn1c(=O)c2cc(S(=O)(=O)NCCC(=O)NCCC3=CCCCC3)ccc2n(C)c1=O
- OX1R antag-1: -22
- OX1R antag-2: 12

CC(=O)Nc1ccc(NC(=O)CCC(=O)NCCO)cc1
- OX1R antag-1: -8
- OX1R antag-2: 4

Later entries
SMILES	OX1R antag-1	OX1R antag-2
O=C(CN(C(=O)c1cccc([N+](=O)[O-])c1)C1CCCCC1)Nc1ccc(Cl)c([N+](=O)[O-])c1	-24	17
Cc1ccc(NS(=O)(=O)c2cc(C(=O)O)ccc2Cl)c(C)c1	-6	11
CCCC/C(O)=C1\C(=O)CCCC1=NCCc1c(C)[nH]c2ccc(OC)cc12	-17	15
CC1(C)N=C(c2ccccn2)C(C)(C)N1O	-9	17
C[N+](C)(C)CCCN1C(=O)CCCC1=O	-17	7
O=C(NCC1CCCCC1)c1cc([N+](=O)[O-])ccc1N1CCOCC1	-4	29
CS/C(=N/S(=O)(=O)c1ccc(C)cc1)c1ccccc1	6	30
COc1cc(/C=C/C(=O)OCC(=O)NC(=O)NC23CC4CC(CC(C4)C2)C3)ccc1OCC#N	-6	15
CCn1c(SCC(=O)NNC(=O)c2ccc(OC)cc2)nnc1-c1ccco1	-25	16
O=c1c(Oc2ccccc2Br)c(C(F)(F)F)oc2c(CN3CCCC3)c(O)ccc12	-9	8
CCS(=O)(=O)c1ccc2c(c1)N(S(=O)(=O)c1ccccc1)CC(C(=O)O)O2 (stereo not given)	-4	11
COc1cc(CNC(=O)OCC(C)C)cc(OC)c1OC	-8	19
COc1ccc2c(c1)CCc1c(C(=O)N3CCCC3)noc1-2	-12	16
Cn1c(SCC(=O)NCc2ccc3c(c2)OCO3)nc2c(c1=O)SCC2	12	22
Cc1cc(=O)n(C)c(=O)n1CCCCCCOc1cccc([N+](=O)[O-])c1	-5	16
CCc1nc(C)cc(N)c1OCc1ccccc1	-14	16
CCOC(=O)c1ccc(COc2ccc(C(C)C)cc2)o1	-16	1
Cc1c(OC(C)C(=O)NCCCN2CCCC2=O)ccc2c3c(c(=O)oc12)CCCC3 (stereo not given)	-24	28
O=C(O)c1ccccc1-c1ccccc1C(=O)Nc1cccc(Br)c1	20	18
O=C(C[n+]1cccc(CO)c1)Nc1nc2ccccc2s1	2	8
NC(=NCCc1c[nH]c2ccccc12)NS(=O)(=O)c1ccc(F)cc1	9	7
O=C1N[C@@H](Cc2ccccc2)C(=O)N2CCC[C@@H]12	1	18
CCOC(=O)N1CCC2(CC1)C(C#N)=C(N)OC1=C2C(=O)CC(C)C1 (stereo not given)	-32	14
COc1ccc(-c2csc(NC(=O)CSc3n[nH]c(N)n3)n2)cc1	-6	17

The closing 2 entries of the section above open the next one:
SMILES	OX1R antag-1	OX1R antag-2
CCOC(=O)N1CCC2(CC1)C(C#N)=C(N)OC1=C2C(=O)CC(C)C1 (stereo not given)	-32	14
COc1ccc(-c2csc(NC(=O)CSc3n[nH]c(N)n3)n2)cc1	-6	17
Cc1cc(C)c(NC(=S)N(Cc2cccnc2)Cc2ccco2)c(C)c1	-7	14
O=C(CSc1nnc(-c2ccccc2Br)o1)Nc1nncs1	-12	-1
C=C(C)CNC(=S)N/N=C/c1ccccc1OCC(=O)O	-14	22
CC(=O)Nc1ccc(C(=O)NNC(=O)CCCCC(=O)NNC(=O)c2ccc(NC(C)=O)cc2)cc1	-6	14
Cc1ccc(S(=O)(=O)CC(=O)c2ccccc2)cc1	-8	21
CCC(CC)c1nnc(NC(=O)C2CCN(C(=O)c3ccco3)CC2)s1	-12	25
CCN(CC)CC(O)COc1ccc2c(c1)OCO2 (stereo not given)	-1	18

Record cards, as listed above:
Listed for CCN(CC)CC(O)COc1ccc2c(c1)OCO2 (stereo not given) : OX1R antag-1 = -1; OX1R antag-2 = 18
Listed for CCC(CC)c1nnc(NC(=O)C2CCN(C(=O)c3ccco3)CC2)s1 : OX1R antag-1 = -12; OX1R antag-2 = 25
Listed for CC(=O)Nc1ccc(C(=O)NNC(=O)CCCCC(=O)NNC(=O)c2ccc(NC(C)=O)cc2)cc1 : OX1R antag-1 = -6; OX1R antag-2 = 14
